# Screening data as filed in PubChem.
# D2 ag: Beta-Arrestin HTS for Positive Allosteric Modulators of the Human D2 Dopamine Receptor: Agonists; activation, % (no concentration beside the values); 360,000 tested, 0.084% active; AID 624465, 2012; DiscoveRx PathHunter D2 beta-arrestin, luminescence, 90 min; 100% = 57 uM dopamine signal; D(2) dopamine receptor (Homo sapiens), P14416; in the data active = activation above about 40%; inconclusive = about 15% to 40%; inactive = below about 15%; also: compound concentration not given in the record; the text of the record calls up to 30% inactive
#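 DiscoveRx PathHunter D2 beta-arrestin cells (2,100/well) attached overnight, then compound-stimulated 90 min at 37 C in HBSS/10 mM HEPES/0.1% Tween-20 buffer; beta-galactosidase complementation read by luminescence after 1 h at ambient temperature. Dopamine 57 uM final (EC100) as control.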
# TRPV1 potentiator: HTS Assay for Compounds that Act as Potentiators of the Vanilloid Receptor 1. potentiation, % at 8.33 µM. Transient receptor potential cation channel subfamily V member 1 (Homo sapiens), Q8NER1. TRPV1-expressing cells, Fluo-8 calcium influx, capsaicin EC20 potentiation; host cell line not named in the record; control for the full effect not named in the record. 320,000 tested, 0.02% active; active means potentiation above 80%; inconclusive means 30% to 80%; inactive means below 30%; also: 0% is about no effect
# Target sequence (Q8NER1 whole entry, looked up): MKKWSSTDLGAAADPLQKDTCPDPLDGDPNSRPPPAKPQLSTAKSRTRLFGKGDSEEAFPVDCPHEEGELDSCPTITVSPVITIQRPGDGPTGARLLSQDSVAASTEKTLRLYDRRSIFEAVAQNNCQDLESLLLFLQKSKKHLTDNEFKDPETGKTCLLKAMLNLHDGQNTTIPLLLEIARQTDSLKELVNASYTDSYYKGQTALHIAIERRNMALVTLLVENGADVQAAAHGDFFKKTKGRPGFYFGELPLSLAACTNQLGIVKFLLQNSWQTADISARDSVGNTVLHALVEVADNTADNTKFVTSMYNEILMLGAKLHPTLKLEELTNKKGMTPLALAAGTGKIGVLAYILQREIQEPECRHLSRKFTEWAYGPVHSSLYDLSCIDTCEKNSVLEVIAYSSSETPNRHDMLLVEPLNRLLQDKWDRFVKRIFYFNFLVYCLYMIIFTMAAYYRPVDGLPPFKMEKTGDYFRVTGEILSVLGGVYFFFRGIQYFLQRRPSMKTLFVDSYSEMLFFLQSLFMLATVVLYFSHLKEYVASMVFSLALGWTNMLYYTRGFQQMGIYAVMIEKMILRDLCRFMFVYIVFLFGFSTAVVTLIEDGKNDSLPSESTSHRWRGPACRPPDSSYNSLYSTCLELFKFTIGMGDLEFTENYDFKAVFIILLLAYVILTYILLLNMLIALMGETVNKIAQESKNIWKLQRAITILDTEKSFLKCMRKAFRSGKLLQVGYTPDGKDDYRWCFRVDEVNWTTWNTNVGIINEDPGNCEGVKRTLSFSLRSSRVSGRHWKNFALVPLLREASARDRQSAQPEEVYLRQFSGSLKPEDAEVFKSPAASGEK
#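 Fluo-8 calcium influx in TRPV1-expressing cells, kinetic read (ex 480/em 520 nm). Compound added and read 3 min for agonist activity, followed by capsaicin at EC20 final and 2 min further read for enhancement.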
# Six1-Eya2 blk: qHTS Assay for Inhibitors of the Six1/Eya2 Interaction. Homeobox protein SIX1 (Homo sapiens) + Protein phosphatase EYA2 (Homo sapiens), …. AlphaScreen GST-Six1/His-Eya2 binding, biochemical; active compounds read low; control for the full effect not named in the record. activity change, % (concentration not given with the values). 360,000 tested, 0.56% active; in the data active = activity change below about -65%; inconclusive = about -30% to -65%; inactive = above about -30%; also: % is scaled to controls: 0 for no effect and ±100 for the full control effect
#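 Six1/Eya2 binding was read as AlphaScreen signal after compounds were pinned into GST-Six1 plus His-tagged Eya2 (5X stock 250/500 nM) in pH 8.0 Tris/NaCl/TCEP buffer, beads added, then incubated 1 h, 37 C, dark.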
# PINK1 expr mod: A Quantitative High throughput Screen to Identify Chemical Modulators of PINK1 Expression; PINK1 immunofluorescence, high-content cytometry, 24 h; Potency, µM (doses to about 76.6 µM), without a hit: at the top dose activation (PINK1 increase), usual class: activators; 410,000 tested, 0.2% active; AID 624263, 2012; active = well fitted activation curve with a large enough effect; inconclusive = small, poorly fitted or top-dose-only effect; inactive = flat fitted curve, though single readings scatter; cell line not stated here;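 also: potency is read from the fitted curve at half-maximal effect; % of control where 0% means no effect; nearly all actives have a fitted effect of over 65% in size; a mitochondrial uncoupler was the plate control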
#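 Measures PINK1 amount and localization on or inside mitochondria by immunofluorescence. Stable cells get compounds at 5 concentrations for 24 hours before fixation and staining; CCCP controls included.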
# CtBP-E1A blk: qHTS Assay for Inhibitors of the CtBP/E1A Interaction | AlphaScreen GST-E1A/His-CtBP binding, 1536-well; active compounds read low; control for the full effect not named in the record | activity change, % (test concentration not listed) | 340,000 tested, 0.49% active | AID 651724, 2012; in the data active means activity change below about -65%; inconclusive means about -30% to -65%; inactive means above about -30%; also: % is scaled to controls: 0 for no effect and ±100 for the full control effect
#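 GST-E1A and His-tagged CtBP (125 nM each as 5X stock) were preincubated with pin-transferred compound for 2 h at 37 °C in the dark, then glutathione donor and nickel acceptor beads were added for 1 h before AlphaScreen reading.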
# Sfp inh: qHTS Assay for Inhibitors of Bacillus subtilis Sfp phosphopantetheinyl transferase (PPTase); 4'-phosphopantetheinyl transferase ffp (Bacillus subtilis), Q9F4F7; Biochemical Sfp PPTase activity, qHTS; Potency, µM, inactives show max response, negative = inhibition, actives largely listed as inhibitors; 310,000 tested, 3.5% active; AID 1490, 2009; active = well fitted inhibition curve with a large enough effect; inconclusive = small, poorly fitted or top-dose-only effect, or another doubt; inactive = no such curve, though single readings can be large or run the other way;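 also: the enzyme is Sfp with the accession as filed and its product quenches rhodamine fluorescence; potency is read from the fitted curve at half-maximal effect; 0% = enzyme reaction without inhibitor and -100% = no enzyme wells; top concentration of the series not given in the record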
#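 Fluorescence-quenching assay: 15 nM Sfp-PPTase preincubated 15 min at room temperature with compound, then 5 uM rhodamine-CoA and 12.5 uM BHQ-2-labelled YbbR peptide added. Fluorescence (ex 525/em 598 nm) read at start and after 30 min; difference gives rate.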
# D2 potentiator: Beta-Arrestin HTS for Positive Allosteric Modulators of the Human D2 Dopamine Receptor: Potentiators. potentiation, % (test concentration not listed). DiscoveRx D2 beta-arrestin cells, luminescence, 90 min; 100% = 57 uM dopamine signal. AID 624464, 2012. 360,000 tested, 0.23% active; active = potentiation of 50% or more; inconclusive = 30% to 50%; inactive = 30% or less;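 also: compound concentration not given in the record; tested on top of an EC20 dose of dopamine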
#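 PathHunter D2 cells, attached overnight at 37 deg C, received compound in DMSO plus dopamine at EC20 (50 nM final) for 90 min at 37 deg C. Beta-arrestin recruitment was read as luminescence after 1 h with detection reagent at ambient temperature.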
# Starred values were filed as active, the others as inactive; ? = inconclusive; · = no result given; [ ] = another dose, or the depositor's remark. Compounds were not picked by outcome (roughly 3.7% active in at least one column).
Structure	D2 ag	TRPV1 potentiator	Six1-Eya2 blk	PINK1 expr mod	CtBP-E1A blk	Sfp inh	D2 potentiator
CCC(CO)N=CC1=C(O)C(C(=O)c2ccccc2)CCC1=O (stereo not given)	-1.0	-12	-1	-1.0%	0	2%	-8
O=c1ccnc(Nc2ccc(Cl)cc2)[nH]1	-2.8	0	3	0.1%	·	6%	-13
Cc1ccc2nc(-c3ccccc3)c(CC3CCCCC3)n2c1	-4.6	·	-7	1.5%	7	·	-9
COc1cc(CN2CCN(c3ncccn3)CC2)cc(OC)c1	56*	-6	6	0.3%	·	0%	1
O=C(CN1CCOCC1)OCCCc1ccccc1	-4.9	-12	-1	-2.0%	4	-1%	-9
CCOc1ccc2nc(S(=O)(=O)NC(=O)C3(C)CCN3C(=O)c3cccc(F)c3)sc2c1 (stereo not given)	-2.8	·	-5	1.2%	-1	·	-8
Cc1[nH]c2ccccc2c1C(=O)C(C)OC(=O)C1CCC1 (stereo not given)	1.5	3	5	1.4%	-1	·	-4
Oc1ccc2ccccc2c1C=Nc1ccccc1Br	8.9	10	1	-0.7%	·	-18%	2
CC(=O)Nc1cccc(Nc2nc(-c3cccs3)nc3ccccc23)c1	-5.0	-22	-18	-1.3%	-15	1%	-3
Cc1cc(N/N=C/c2ccc(O)cc2)c2cccc(C)c2n1	-4.3	6	?	-2.5%	·	-27%	-58
CC1CCN(C(=O)c2ccc(S(=O)(=O)N3CCOCC3)cc2)CC1	-0.1	?	-2	0.4%	7	10%	-6
CC(=O)C(=Nc1cccc(Cl)c1)NNc1ccccc1C	-1.1	·	?	5.1%	?	·	-4
COCCNC(=O)CN(c1cc(Cl)ccc1OC)S(=O)(=O)c1ccc(C)c([N+](=O)[O-])c1	-3.6	2	0	1.1%	-1	18%	-6
Cc1cc(NC(=O)C(C)C)ncc1NC(=O)Cc1ccccc1	-2.7	3	5	-0.5%	7	7%	14
COc1cccc(NC(=O)CN(C)C(=O)c2cc(S(=O)(=O)NCc3ccccc3)ccc2C)c1	-6.5	8	-3	?	4	7%	-49
O=C(Nc1ccc(Cl)cc1)C1Cc2c(-c3ccccc3)ccnc2O1 (stereo not given)	2.0	·	-4	-0.9%	-2	·	-22
COc1ccc(OCc2nc3ccccc3n2C(C)C)cc1	-20	?	3	0.0%	3	6%	-5
COC(=O)c1c(NC(=O)CN2CCN(Cc3ccc4c(c3)OCO4)CC2)sc(C)c1C	-3.9	-13	-24	·	-15	-1%	-31
COc1ccc(CCNC(=O)Cn2nnc(-c3ccc(N(C)C)cc3)n2)cc1OC	1.8	1	-9	?	-8	4%	-4
COC(=O)c1nn(-c2cccc(C(F)(F)F)c2)ccc1=O	2.1	23	1	-1.3%	4	8%	-7
COc1ccccc1CC(=O)N1CCCC1	-2.8	2	2	-0.3%	4	23%	-4
CCOC(=O)c1c(NC(=O)COc2ncnc3ccccc23)sc(C(C)=O)c1C	0.8	3	-9	0.5%	-27	15%	7
COC(=O)CN1CCN(C(=O)c2ccc(F)cc2)c2ccccc2C1	-2.0	-9	10	-1.8%	-1	14%	-4
CS(=O)(=O)NCc1ccc(C(=O)NCc2ccccc2)cc1	-2.2	6	3	-1.2%[38.3 µM]	-23	9%	-5
N#C/C(=N/Nc1ccccc1F)C(=N)N1CCOCC1	-1.7	-8	4	2.8%[38.3 µM]	4	5%	-5
O=C(COc1ccc(Cl)cc1)NNC(=O)c1ccc(=O)[nH]c1	-1.7	·	-3	-0.2%	2	·	-21
O=C(Nc1ccccc1Br)c1ccc2nccnc2c1	0.1	-1	3	-2.9%	1	9%	-3
O=C(NC(=O)N1CCCCC1)c1ccc(Cl)cc1	-6.9	-40	7	-1.0%	2	4%	-8
Cn1ccnc1C(O)c1ccco1 (stereo not given)	-1.3	4	-1	6.7%[38.3 µM]	-5	?	-7
Clc1ccc(Nc2nc(N3CCOCC3)nc(N3CCOCC3)n2)cc1Cl	-1.9	-17	3	1.3%	2	?	-2
CCc1nc2ccc(C(=O)Nc3cccc(OCC(=O)N(C)C)c3)cn2c1N(C)C(=O)c1cccc(OC)c1	-4.4	·	-7	1.1%	-2	·	-1
COc1ccc(C2c3[nH]c4ccccc4c3C[C@H]3C(=O)N(CCCO)CC(=O)N23)c(OC)c1 (stereo not given in full)	-3.6	-3	-6	2.1%	·	9%	-5
CCOC(=O)CC(=O)CSc1ncc(C(=O)OCC)c(N)n1	-4.5	15	-3	4.3%	-1	9%	-42
CC(OC(=O)Cc1ccc(Cl)cc1)C(=O)NC1CCCCC1C (stereo not given)	1.3	5	4	2.4%	2	·	1
Cc1ccc(N2C(=O)[C@@H]3[C@H](C2=O)C2c4ccccc4C=CN2[C@@H]3C(=O)c2ccco2)cc1 (stereo not given in full)	-2.9	13	8	-1.7%	-2	-23%	1
Nc1nc(-c2ccccc2)c(CC(=O)O)s1	-5.9	·	5	0.2%	0	·	-4
Cc1ccc2nc(SC(C)C(=O)N3CCCCC3)[nH]c2c1 (stereo not given)	0.9	-17	-2	0.6%	4	17%	-31
Cc1nn(C)c(C)c1S(=O)(=O)N(CC(=O)NCCCN1CC(C)CC(C)C1)c1ccc(C(C)C)cc1 (stereo not given)	-3.2	1	8	-2.1%	-15	9%	-6
Brc1ccc2[nH]c3c(c2c1)CCC3	-0.4	·	5	1.7%	-2	9%	1
CCN1CCN(c2ccc(NC(=O)c3cc4ccccc4cc3OC)cc2C)CC1	7.9	-1	3	-0.3%	17	·	-1
Cc1cc(C)n2nc(C(=O)NNC(=O)c3ccc(Cl)cc3)nc2n1	-3.4	10	4	1.0%	1	?	-9
CC(C)CC(=O)Nc1ccc(Oc2ccc(NC(=O)CC(C)C)cc2)cc1	-2.9	-4	0	-0.7%	5	24%	-24
O=C(NNc1ccccc1F)c1ccccc1	2.3	13	5	-0.4%	7	-1%	-6
COc1cc(/C=C2\SC(=Nc3c(C)n(C)n(-c4ccccc4)c3=O)NC2=O)ccc1O	-1.6	12	-7	-1.2%	-4	3%	-9
Cc1ccnc(NC(=O)c2ccc(Cl)s2)c1	4.9	-8	1	0.6%	·	11%	-5
O=C(N/N=C/c1ccc(Cl)cc1)Nc1ccccc1	-0.7	-6	-2	1.0%	-12	5%	-14
COc1ccc(C(=O)N/N=C/c2sc(N3CCOCC3)nc2-c2ccccc2)cc1OC	-2.9	5	-24	2.7%	11	10%	-24
COC(=O)C1=C(C)N(C)C(C)=C(C(=O)OC)C1c1ccc(Cl)cc1	-2.9	-8	-3	7.0%	3	-2%	-5
O=C(/C=C/c1cccs1)Nc1ccc(N2CCOCC2)c(S(=O)(=O)Nc2cc(Cl)ccc2Cl)c1	-3.6	-4	5	1.9%	-3	16%	-9
COc1ccccc1N1CCN(C(=O)c2ccc(Br)s2)CC1	-0.9	-23	-3	-1.4%[38.3 µM]	13	-19%	-10

# In another format: four of the compounds above.
CC(OC(=O)Cc1ccc(Cl)cc1)C(=O)NC1CCCCC1C (stereo not given)
  D2 ag: 1.3; TRPV1 potentiator: 5; Six1-Eya2 blk: 4; PINK1 expr mod: 2.4%; CtBP-E1A blk: 2; Sfp inh: ·; D2 potentiator: 1
CCOC(=O)CC(=O)CSc1ncc(C(=O)OCC)c(N)n1
  D2 ag: -4.5; TRPV1 potentiator: 15; Six1-Eya2 blk: -3; PINK1 expr mod: 4.3%; CtBP-E1A blk: -1; Sfp inh: 9%; D2 potentiator: -42
COc1ccc(C(=O)N/N=C/c2sc(N3CCOCC3)nc2-c2ccccc2)cc1OC
  D2 ag: -2.9; TRPV1 potentiator: 5; Six1-Eya2 blk: -24; PINK1 expr mod: 2.7%; CtBP-E1A blk: 11; Sfp inh: 10%; D2 potentiator: -24
O=C(COc1ccc(Cl)cc1)NNC(=O)c1ccc(=O)[nH]c1
  D2 ag: -1.7; TRPV1 potentiator: ·; Six1-Eya2 blk: -3; PINK1 expr mod: -0.2%; CtBP-E1A blk: 2; Sfp inh: ·; D2 potentiator: -21

# The results go on:
Structure	D2 ag	TRPV1 potentiator	Six1-Eya2 blk	PINK1 expr mod	CtBP-E1A blk	Sfp inh	D2 potentiator
Cc1cccc(CN2CCN(CC(=O)NCCCN3CCN(c4ccc(F)cc4)CC3)C2=O)c1	-1.1	4	-5	9.2%[38.3 µM]	-10	12%	-20
O=C1CN(C(=O)c2ccccc2F)C(c2ccc(F)cc2)c2cc(F)ccc2N1 (stereo not given)	0.6	-11	10	0.1%	-1	-8%	0
CC(C)(C)C1CCC(=NNC(=O)c2ccco2)CC1 (stereo not given)	-1.4	3	9	-0.4%	8	3%	3
S=c1nc(-c2ccccc2)n(-c2ccccc2)[nH]1	-5.3	9	5	-0.3%	4	2%	-10
CCCCCCCCN1C(=O)[C@H](CC(=O)N2CCCCC2)C[C@@]2(C(=O)OCC)CCCC=C12	·	·	-3	19%	-2	·	·
CC(C)(C)c1cc[n+](CC(=O)Nc2cc(C(F)(F)F)ccc2N2CCOCC2)cc1	-1.4	-2	-1	-0.4%	0	8%	-18
COC(=O)c1ccc(C2NC(=O)NC(C)=C2C(=O)N(C)C)cc1 (stereo not given)	-2.0	9	-3	0.2%	5	2%	-7
CCN(C(=O)COC(=O)c1ccc(=O)n(Cc2ccccc2)n1)C1CCS(=O)(=O)C1 (stereo not given)	-4.2	2	-2	0.7%	12	·	-38

# A second format for part of the listing above:
CCCCCCCCN1C(=O)[C@H](CC(=O)N2CCCCC2)C[C@@]2(C(=O)OCC)CCCC=C12
- D2 ag: ·
- TRPV1 potentiator: ·
- Six1-Eya2 blk: -3
- PINK1 expr mod: 19%
- CtBP-E1A blk: -2
- Sfp inh: ·
- D2 potentiator: ·
S=c1nc(-c2ccccc2)n(-c2ccccc2)[nH]1
- D2 ag: -5.3
- TRPV1 potentiator: 9
- Six1-Eya2 blk: 5
- PINK1 expr mod: -0.3%
- CtBP-E1A blk: 4
- Sfp inh: 2%
- D2 potentiator: -10
